# From PubChem BioAssay
# RE007 growth inh: qHTS Assay for Inhibitors of the HIV-1 protein Vpr | S. pombe RE007 Vpr strain, BacTiter-Glo ATP luminescence, 24 h; control for the full effect not named in the record | Potency, µM (titrated, usually from 92.2 µM), for the others: at the highest dose activity change, negative = less growth | hit rate 0.21% among 360,000 | AID 651644, 2012; active = well fitted falling curve with a large enough effect; inconclusive = small, poorly fitted or top-dose-only effect; inactive = no such curve, though single readings can be large or run the other way;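 further: on the % scale 0 is the no-effect control and ±100 the full control effect; nearly all actives have a fitted effect of over 50% in size; the assay follows cell death caused by Vpr and the record does not say whether a fall means rescue or toxicity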
#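 Fission yeast strain RE007, carrying one chromosomally integrated HIV-1 vpr copy, was seeded at OD 0.01 in PMG+AL medium with 23 nL pinned compound. After 24 h at 30 °C and 99% humidity, viability was read by BacTiter-Glo luminescence.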
# StopGo reporter: High Throughput Screening for Foot and Mouth Disease Virus Antivirals | human cells with a luciferase reporter of 2A StopGo recoding; control for the full effect not named in the record | Potency, µM (highest dose often 57.9 µM), for inactives: top-dose signal change, negative = less light | hit rate 1.2% among 410,000 | AID 1159524, 2015; active = well fitted falling curve with a large enough effect; inconclusive = small, poorly fitted or top-dose-only effect; inactive = no such curve, though single readings can be large or run the other way; tested in HEK293T cells; further: on the % scale 0 is the no-effect control and ±100 the full control effect; nearly all actives have a fitted effect of over 45% in size; luciferase light after 4 h
# SARS PLP yeast: qHTS of Yeast-based Assay for SARS-CoV PLP; S. cerevisiae expressing SARS-CoV PLpro, growth rescue; control for the full effect not named in the record; Potency, µM (highest dose often 32.9 µM), for inactives: at the top dose activity, positive = growth rescue; hit rate 0.19% among 330,000; AID 485353, 2010; active means well fitted rising curve with a large enough effect; inconclusive means small, poorly fitted or top-dose-only effect; inactive means no such curve, though single readings can be large or run the other way; further: 0% is about no effect; nearly all actives have a fitted effect of over 55% in size; growth read by luminescence after 48 h
# * marks the source's active call; other numbers are inactive results; u = inconclusive; ! = repeats disagree; [ ] = remark or other dose. Potency means the concentration at half of the fitted maximal effect. A portion of the library; count on the stated rates, not on these rows.
SMILES,RE007 growth inh,StopGo reporter,SARS PLP yeast
CC(C)NC(=O)N(C)C[C@@H]1Oc2ccc(NC(=O)CCN3CCOCC3)cc2CC(=O)N([C@@H](C)CO)C[C@@H]1C,-13%,-14%,-17%
O=C(Cc1cc(=O)[nH][nH]1)N/N=C/c1c(F)cccc1Cl,9%,-8%,7%
COc1ccc([C@@H]2[C@@H]3C(=O)N(C(C)(C)C)C(=O)[C@@H]3[C@]3(Cc4ccccc4)C(=O)N(c4cccc(C)c4)C(=O)N23)cc1,-6%,10%,2%
CC(=O)Nc1ccc2nc(NC(=O)CCc3ccccc3)sc2c1,6%,17%,-4%
CCOC(=O)N1CCN(C(=O)c2ccc3[nH]c(C)c(C)c3c2)CC1,5%,-2%,-1%
Cc1ccc(NC(=O)COC(=O)CCc2ccccc2)cc1S(=O)(=O)N1CCOCC1,-9%,1%,0%
COc1ccc2c(c1)OC[C@H]1[C@H]2N2C(=O)c3ccccc3NC(=O)[C@@]2(C)[C@H]1c1ccccc1,-10%,u,3%
Cc1ccc(S(=O)(=O)N2CCOCC2)cc1C(=O)Nc1ccncc1,-4%,-9%,-3%
COC(=O)C(C(C)C)N(Cc1cc(OC)cc(OC)c1)S(=O)(=O)CCl (stereo not drawn),-11%,0%,-1%
C/C(CC(=O)Nc1ccc2c(c1)OCCO2)=N\NC(=O)c1ccccn1,2%,6%,1%
CC1(C)CC(=O)C2=C(C1)OC1=C(C(=O)CC(C)(C)C1)C2c1ccc(O)c([N+](=O)[O-])c1,16%,3%,-1%
Cc1ccc(Cn2cc(SCC(N)=O)c3ccccc32)cc1,8%,-14%,1%
COc1ccc(CCC(=O)N2CCN(S(=O)(=O)c3ccc(C)cc3)CC2)cc1,-14%,-14%,0%
O=C1c2ccccc2C(=O)N1CCC#Cc1ccc2cc(CCO)oc(=O)c2c1,9%,u,0%
COCC(C)n1c(SCC(=O)Nc2c(C)n(C)n(-c3ccccc3)c2=O)nc2ccccc2c1=O (stereo not drawn),2%,-25%,1%
Cc1ccc(S(=O)(=O)NCCC(=O)OCC(=O)Nc2cccc(Cl)c2)cc1,-6%,16%,-5%
COc1cc(C(=O)OCCc2cc3ccccc3c(=O)o2)cc(OC)c1OC,11%,u,2%
COc1ccccc1-c1sc2ccccc2c1-c1ccc(OCCN2CCOCC2)cc1,-9%,-27%,-60%
Cc1noc(C)c1COc1cccc(C(=O)N(C)Cc2cccs2)c1,-1%,2%,7%
Cc1cccc(NC(=O)COC(=O)CCc2c[nH]c3ccccc23)c1,3%,-9%,-2%
COc1ccc(C)cc1NC(=O)/C=C/c1ccc(OC)c(S(=O)(=O)N2CCOCC2)c1,11%,u,-11%
C[C@@H](c1ccccc1)N1Cc2ccccc2Oc2cc(Br)ccc2S1(=O)=O,5%,u,-21%
COc1ccc(CN(C)C(=O)Cc2ccc(S(=O)(=O)N3CCOCC3)s2)cc1OC,7%,-9%,4%
CCOC(=O)c1sc(NC(=O)C2CC(=O)N(c3ccc4c(c3)OCCO4)C2)nc1C (stereo not drawn),7%,-6%,2%
O=C(COC(=O)c1ccc(C(F)(F)F)cc1)NC(=O)NC1CCCC1,15%,-4%,1%
CC(=O)Nc1ccc(C(=O)OCC(=O)N2CCN(C(=O)c3ccco3)CC2)cc1,7%,3%,0%
O=C(O)c1cc([N+](=O)[O-])c(NCCC2=CCCCC2)c([N+](=O)[O-])c1,-14%,-10%,0%
Cc1ccc(-c2csc3ncn(CC(=O)NCC(c4ccco4)N4CCCC4)c(=O)c23)cc1 (stereo not drawn),3%,-12%,6%
COc1ccc(C(=O)c2c3ccccc3[n+]([O-])n2CCC(N)=O)cc1,10%,10%,2%
COc1cccc(NC(=O)Cn2c(CCC(=O)O)ccc2-c2ccc(C)cc2)c1,-6%,5%,u
CCOc1ccc(NC(=O)C(C)Oc2ccc(C#N)cc2)cc1S(=O)(=O)N1CCCC1 (stereo not drawn),14%,7%,-1%
O=C(CO)C(O)C(O)C(O)CO (stereo not drawn),19%,-22%,8%
CC(C)n1cnnc1SCC(=O)NCC(=O)Nc1ccc(F)cc1,-1%,-17%,-17%
COc1cc(-c2noc(C)c2C(=O)NCCCn2ccnc2)cc(OC)c1OC,-4%,-10%,-8%
CCN1C(=O)[C@H]2[C@H]3CN=C(SCc4ccccc4)N3[C@@](CC)(C(=O)OC)[C@H]2C1=O,-9%,-15%,7%
COc1ccc(S(=O)(=O)N2CCOCC2)cc1NC(=O)C1CCCN1C(=O)c1cccs1 (stereo not drawn),29%,15%,7%
O=C(Nc1cccc(S(=O)(=O)N2CCCCC2)c1)C1CC(=O)N(Cc2ccccc2)C1 (stereo not drawn),16%,7%,-3%
COC(=O)C1=C(c2ccc3ccccc3c2)C[C@@H]2CC[C@H]1N2C(=O)NC1Cc2ccccc2C1,4%,-8%,-10%
CC(NC(=O)CNC(=O)C(Cc1ccccc1)NC(=O)OCc1ccccc1)C(N)=O (stereo not drawn),-7%,-9%,1%
O=C(CCNC(=O)c1ccccc1)OCC(=O)c1cccc(Cl)c1,8%,-10%,-2%
COC(=O)[C@@]12CCCCN1[C@H](c1ccc(-c3ccc(OC)cc3)cc1)[C@@H]1C(=O)N(C)C(=O)[C@@H]12,6%,-28%,0%
COc1ccc(CNC(=O)CN2C(=O)NC(Cc3ccccc3)(c3ccccc3)C2=O)cc1OC (stereo not drawn),-2%,-6%,2%
N#Cc1ccccc1S(=O)(=O)N1CCN(CC(=O)NCC2(N3CCOCC3)CCCCC2)CC1,-4%,3%,2%
CN(CC(=O)Nc1ccc(F)cc1)C(=O)COC(=O)/C=C/c1ccccc1[N+](=O)[O-],0%,-17%,0%
Cc1c(C(=O)NCCn2ccc3ccccc32)cccc1[N+](=O)[O-],4%,-16%,0%
CCOC(=O)C1CCN(C(=O)c2cccc(S(=O)(=O)NCc3ccccc3)c2)CC1,-2%,16%,-8%
CSCCC(NC(=O)c1ccco1)C(=O)N1CC(C)OC(C)C1 (stereo not drawn),-14%,-7%,3%
Cn1c(N)c(C(=O)c2ccc(Cl)c(S(=O)(=O)N3CCCCCC3)c2)c(=O)n(C)c1=O,-3%,-29%,2%
COc1ccccc1OCC(=O)NC1CCSc2ccccc21 (stereo not drawn),-16%,-5%,-4%
CCCCN(C(=O)c1ccc2ccccc2c1)c1c(N)n(CCCC)c(=O)[nH]c1=O,19%,1%,5%
COc1ccc([C@H]2CC(=O)C=C(c3cccc(OC(F)(F)F)c3)C2)cc1,2%,-8%,1%
Cc1ccc(C)c(NC(=O)Cn2nnc(-c3ccc(N4CCOCC4)cc3)n2)c1,5%,22%,-2%
Cc1ccc(NC(=O)Nc2cc(Cl)ccc2C2COC(=O)C2=N)cc1 (stereo not drawn),4%,-5%,0%
Cn1nc(C(=O)N2CCCc3ccccc32)c2ccccc2c1=O,7%,1%,0%
O=C(COc1ncnc2sccc12)Nc1ccc(F)cc1F,2%,-11%,-6%
CNC(=O)CSc1nc2[nH]ncc2c(=O)[nH]1,-3%,-14%,3%
Cc1cccc(N2CC(C(=O)Nc3cccc(S(=O)(=O)N4CCCCC4)c3)CC2=O)c1C (stereo not drawn),-4%,u,1%
CCC(C)Sc1cccc(-c2nc3ccc(C)cn3c2NCc2ccccc2)c1 (stereo not drawn),u,32µM*!,-2%
CCCN(C(=O)c1nc2nc(C)cc(C)n2n1)c1c(N)n(Cc2ccccc2)c(=O)[nH]c1=O,6%,-2%,-1%
O=C(CSc1nnnn1-c1ccccc1)NCC1(N2CCOCC2)CCCCC1,-8%,-20%,-6%

# Next part.
SMILES,RE007 growth inh,StopGo reporter,SARS PLP yeast
C[C@H](CO)N1C[C@H](C)[C@@H](CN(C)C(=O)Nc2ccc(C(F)(F)F)cc2)Oc2c(NS(=O)(=O)c3cccs3)cccc2C1=O,7%,66%[activator],-1%
COCCN(CC(=O)Nc1ccccc1C(F)(F)F)C(=O)/C=C/c1ccc2ccccc2n1,-15%,8%,14%
COc1cccc(CNC(=O)COC(=O)C23CC4CC(CC(Cl)(C4)C2)C3)c1,8%,-2%,-4%
Cn1cccc1C(=O)OCc1cc(-c2ccco2)on1,-16%,63%[activator],2%
COc1ccc(-c2csc(NC(=O)COC(=O)C3=COCCO3)n2)cc1,-3%,53%[activator],3%
CCOC(=O)NCCOC(=O)Nc1ccc(Cl)cc1,0%,6%,1%
COCCN(C(=O)COC(=O)Cc1c(C)nc2ccccc2c1C)c1c(N)n(CC(C)C)c(=O)[nH]c1=O,9%,-1%,0%
Cc1ccccc1-c1cc(C(=O)O)nn1CC1CC(c2cccc([N+](=O)[O-])c2)=NO1 (stereo not drawn),-15%,-19%,-18%
O=C(Nc1ccccc1)c1nsnc1C(=O)Nc1ccccc1,-15%,8%,0%
O=C(Nc1cc(S(=O)(=O)N2CCCC2)ccc1Cl)c1ccncc1,14%,6%,3%
C#CCOCCOCCOCCNc1nc(OC)nc(N2CCN(C(=O)[C@H](CCC(=O)O)n3cc(C(N)CO)nn3)CC2)n1 (stereo partly drawn),19%,-4%,-1%
CC12CCC(C/C1=N/NC(=O)Nc1ccccc1)C2(C)C (stereo not drawn),7%,19%,6%
Cc1ccc(N(C(=O)c2snc(C(N)=O)c2N)C(C(=O)NCCC(C)C)c2ccco2)cc1 (stereo not drawn),-4%,-21%,0%
CC[C@@H]1C=C(C(=O)O)[C@H](c2ccc(C#N)cc2)N1S(=O)(=O)c1ccc(C)cc1,-5%,-26%,4%
C[C@H](CO)N1C[C@H](C)[C@@H](CN(C)S(C)(=O)=O)Oc2c(NC(=O)Nc3ccccc3)cccc2C1=O,12%,33%[activator],-43%
CCN(C(=O)CN1C(=O)NC(c2ccccc2)(c2ccc(C)c(C)c2)C1=O)C1CCS(=O)(=O)C1 (stereo not drawn),7%,-22%,3%
CC(=O)N1CCC(CCCC2CCN(C(C)=O)CC2)CC1,3%,-11%,-4%
COc1ccc([C@H]2CC(=O)C=C(c3ccc4cc[nH]c4c3)C2)cc1,8%,57%[activator],-1%
C[N+]1(CCn2ccc3ccccc32)CCCCC1,-1%,-5%,-2%
O=C1C=C(c2ccc(-c3ccccc3)cc2)C[C@@H](c2ccc(F)cc2)C1,1%,-24%,-2%

# 6 entries picked at random from those above, as already listed:
SMILES,RE007 growth inh,StopGo reporter,SARS PLP yeast
C[C@H](CO)N1C[C@H](C)[C@@H](CN(C)S(C)(=O)=O)Oc2c(NC(=O)Nc3ccccc3)cccc2C1=O,12%,33%[activator],-43%
COc1ccc([C@H]2CC(=O)C=C(c3ccc4cc[nH]c4c3)C2)cc1,8%,57%[activator],-1%
CCN(C(=O)CN1C(=O)NC(c2ccccc2)(c2ccc(C)c(C)c2)C1=O)C1CCS(=O)(=O)C1 (stereo not drawn),7%,-22%,3%
COCCN(CC(=O)Nc1ccccc1C(F)(F)F)C(=O)/C=C/c1ccc2ccccc2n1,-15%,8%,14%
COCCN(C(=O)COC(=O)Cc1c(C)nc2ccccc2c1C)c1c(N)n(CC(C)C)c(=O)[nH]c1=O,9%,-1%,0%
C#CCOCCOCCOCCNc1nc(OC)nc(N2CCN(C(=O)[C@H](CCC(=O)O)n3cc(C(N)CO)nn3)CC2)n1 (stereo partly drawn),19%,-4%,-1%

# 2 entries from above, as labelled records:
O=C(Nc1cc(S(=O)(=O)N2CCCC2)ccc1Cl)c1ccncc1
  RE007 growth inh: 14%
  StopGo reporter: 6%
  SARS PLP yeast: 3%

CC[C@@H]1C=C(C(=O)O)[C@H](c2ccc(C#N)cc2)N1S(=O)(=O)c1ccc(C)cc1
  RE007 growth inh: -5%
  StopGo reporter: -26%
  SARS PLP yeast: 4%

# (list continues)
SMILES,RE007 growth inh,StopGo reporter,SARS PLP yeast
CCN(c1ccccc1)S(=O)(=O)c1ccc(OC)c(NS(=O)(=O)c2cccs2)c1,1%,24%,2%
Cc1ccccc1OCC(=O)N(Cc1ccco1)c1c(N)n(Cc2ccccc2)c(=O)[nH]c1=O,-16%,-9%,0%
COc1cccc(OC)c1C(=O)OCC(=O)NCc1ccco1,-5%,-4%,22%
C=CCC[C@H](Cc1ccc(F)cc1)C(=O)OC[C@@H](NC(=O)[C@@H](CC=C)CC(=O)N(CCO)Cc1ccccc1)C(C)(C)C,1%,u,5%
CN1CCN(S(=O)(=O)c2ccc(NC(=O)COc3ccccc3)cc2)CC1,-6%,2%,2%
C=C1C(=O)O[C@@]23[C@H]1CC[C@@H](C)[C@@H]2CC[C@@]1(C)O[C@@H]31,-5%,u,4%

# Molecules from the list above containing a tert-butyl group (2):
SMILES,RE007 growth inh,StopGo reporter,SARS PLP yeast
COc1ccc([C@@H]2[C@@H]3C(=O)N(C(C)(C)C)C(=O)[C@@H]3[C@]3(Cc4ccccc4)C(=O)N(c4cccc(C)c4)C(=O)N23)cc1,-6%,10%,2%
C=CCC[C@H](Cc1ccc(F)cc1)C(=O)OC[C@@H](NC(=O)[C@@H](CC=C)CC(=O)N(CCO)Cc1ccccc1)C(C)(C)C,1%,u,5%
